# Screening data: PubChem BioAssay, National Center for Advancing Translational Sciences (NCATS)
# TSHR agonist: TSH receptor (human) agonism | hit rate 0.48% among 73,000 | P16473 | HEK293-CNG-TSHR cells (CNG channel as cAMP sensor), membrane potential dye, cAMP | AID 926 | Potency, µM (doses to about 57.1 µM), for inactives: at the top dose activation, most hits filed as activators; active = well fitted activation curve of enough size with the parental cells flat; inconclusive = any curve in the parental cells; inactive = parental cells flat and receptor cells flat or falling; note: potency is the fitted concentration of half-maximal effect; % of control where 0% means no effect; weak receptor curves with flat parental cells got no call and are not listed
# Target sequence (P16473 whole entry, looked up): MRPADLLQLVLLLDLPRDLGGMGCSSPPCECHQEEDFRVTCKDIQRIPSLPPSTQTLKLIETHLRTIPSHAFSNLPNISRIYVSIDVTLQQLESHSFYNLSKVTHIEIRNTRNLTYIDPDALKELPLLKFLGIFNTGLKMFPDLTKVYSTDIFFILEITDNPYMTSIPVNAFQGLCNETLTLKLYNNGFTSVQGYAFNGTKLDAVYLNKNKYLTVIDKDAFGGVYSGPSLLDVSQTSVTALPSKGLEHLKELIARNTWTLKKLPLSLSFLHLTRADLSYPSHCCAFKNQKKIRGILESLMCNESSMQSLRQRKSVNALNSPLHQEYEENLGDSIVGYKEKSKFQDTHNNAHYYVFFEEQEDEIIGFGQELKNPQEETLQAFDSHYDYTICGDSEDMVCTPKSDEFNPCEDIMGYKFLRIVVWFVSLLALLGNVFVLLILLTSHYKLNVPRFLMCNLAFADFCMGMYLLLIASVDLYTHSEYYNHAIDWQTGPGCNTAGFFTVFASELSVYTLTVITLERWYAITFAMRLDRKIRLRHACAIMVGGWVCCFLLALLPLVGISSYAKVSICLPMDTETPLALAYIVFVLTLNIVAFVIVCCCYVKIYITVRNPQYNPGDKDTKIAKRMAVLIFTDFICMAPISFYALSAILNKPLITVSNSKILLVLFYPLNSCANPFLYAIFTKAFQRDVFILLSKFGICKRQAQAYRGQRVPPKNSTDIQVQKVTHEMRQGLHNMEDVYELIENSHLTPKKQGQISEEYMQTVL
#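 HEK 293 cells stably expressing TSHR and a modified CNG channel, with CNG-only parental cells as counterscreen, were preloaded 60 min at room temperature with membrane potential dye containing 100 uM RO 20-1724. Compound exposure was 30 min, and depolarization was read as fluorescence at 590 nm.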
# A647 autofl: compound fluoresces in the A647 spectral region. Compound fluorescence, A647 channel (570/671 nm), Tris buffer. max dye-equivalent concentration, M. 59,000 tested, under 10 active; active means above 1 µM dye equivalent; inconclusive means 0.1 to 1 µM; inactive means 0.1 µM or less;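 note: values scaled relative to a standard on each plate; highest value over a series up to 38 µM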
#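 Fluorescence read (570 nm ex, 671 nm em) after 15 min RT incubation of compounds in 100 mM Tris buffer, pH 8.0; values expressed as dye-equivalent concentration against a six-point A647 standard series on each plate.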
# AID923: qHTS Assay for Allosteric/Competitive Inhibitors of Caspase-1: Spectroscopic Profiling in AFC Spectral Region. hit rate 1.1% among 75,000. Potency, µM (highest dose often 57.5 µM), without a hit: at the top dose fluorescence increase, usual class: activators. compound fluorescence, AFC spectral region (405/520 nm); almost no hit is shown here; active = well fitted activation curve with a large enough effect; inconclusive = small, poorly fitted or top-dose-only effect;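 note: potency is the fitted concentration of half-maximal effect; 0% is about no effect; scaled to a free AFC standard on each plate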
#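 Compound autofluorescence profiled at 405 nm ex/520 nm em during kinetic caspase 1 run (50 nM enzyme, 5 uM Ac-WEHD-AFC, HEPES pH 7.5, 10 mM DTT). Titration up to 57 uM; baseline from regression intercept, normalized to AFC standard curve.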
# A488 fluor: compound fluoresces in the A488 spectral region. max dye equivalency, M. compound autofluorescence, A488 spectral region, dye equivalency; stronger effect = higher value. hit rate 0.1% among 59,000; active = above 10 nM dye equivalent; inconclusive = 1 to 10 nM; inactive = 1 nM or less; about half of its hits are not listed in these tables;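 note: highest value over a series up to 38 µM; compound alone in buffer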
#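 Read-out: relative fluorescence at 480/540 nm, expressed as Alexa 488 dye-equivalent concentration from a six-point A488 standard included per plate. Conditions: 100 mM Tris, pH 8.0; 15 min incubation, room temperature.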
# Resorufin fluor: compounds fluorescent in resorufin spectral region; max dye-equivalent concentration, M; Compound fluorescence, resorufin region 547/598 nm, buffer; stronger effect = higher value; hit rate 0.04% among 59,000; active = above 10 nM dye equivalent; inconclusive = 1 to 10 nM; inactive = 1 nM or less; a few of its hits are not listed in these tables; note: highest value over a series up to 38 µM
#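 Compounds in 100 mM Tris buffer, pH 8.0, incubated 15 min at room temperature, then read with 547 nm excitation and 598 nm emission filters. Fluorescence was converted to dye-equivalent concentration using an on-plate six-point resorufin standard curve.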
# Numbers without * were called inactive; i = inactive; ? = inconclusive; / = not tested or not shown; & = joins results of further samples; [ ] = another dose, or the depositor's remark. Some of the compounds tested. The share of hits here may be higher or lower than overall.
SMILES,TSHR agonist,A647 autofl,AID923,A488 fluor,Resorufin fluor
N#CCCN(C(=O)Nc1ccc(Cl)cc1)c1ccccc1,12%,1.3e-08,-0.6%,i,i
CCCCNc1cc(C)nc(NCc2ccccc2)n1,?,1e-09,1.1%,i,i
CCOc1ccc2ccccc2c1C(=O)N1CCOCC1,7%,1e-09,-1.8%,i,i
COc1cc(CC(=O)N2CCc3ccccc32)cc(OC)c1OC,15%,2.2e-09,-2.2%,i,i
Cc1cccc(-n2cnc3c(c2=O)c2nc4ccccc4nc2n3Cc2ccco2)c1,4%,1e-09,9.1%,i,i
O=C(c1ccccc1)c1ccc(OC(=O)N2CCOCC2)cc1,-1%[11.4 µM],/,-0.2%,/,/
Cn1ccnc1SCC(=O)NC1CCCCC1,-1%,1.1e-08,-2.1%,i,i
CCCn1c2c(c(O)c(C(=O)Nc3nccs3)c1=O)CCCC2,34%,1.4e-09,1.3%,i,i
O=C(c1ccco1)N1CCN(C(c2ccc(F)cc2)c2nnnn2Cc2cccs2)CC1 (centres undefined),?,1.8e-08,0.0%,i,i
COc1ccccc1NC(=O)c1ccc(S(=O)(=O)N(C)C)cc1,5%,/,-0.7%,/,/
Cc1ccc(S(=O)(=O)Nc2ccc3c(c2)nc2n3CCN(Cc3ccccc3)C2)cc1,14%,1e-09,11%,i,i
Cc1cccc(NC(=O)CSc2nnc(-c3ccco3)o2)c1C,-1%,6.5e-09,-1.6%,i,i
CNC(=O)C1(C)C=CCN1C(=O)OC (centres undefined),-5%,/,-2.3%,/,/
COc1ccc(NC(=O)NCCCN2CCc3ccccc3C2)cc1,11%,/,-1.7%,/,/
CC(=O)Cn1c(N2CCC(Cc3ccccc3)CC2)nc2c1c(=O)[nH]c(=O)n2C,1%,6.6e-09,-0.5%,i,i
CCC(Oc1ccccc1)C(=O)Nc1ccccn1 (centres undefined),-1%,6.7e-09,0.0%,i,i
COc1ccc2c(c1OC)C(=O)OC2C1c2c(cc3c(c2OC)OCO3)CCN1C (centres undefined),14%,2.6e-08,-0.3%,i,i
O=C(NCCCn1ccnc1)c1cnn2c1NC(c1ccccc1)CC2C(F)(F)F (centres undefined),-1%,2.8e-09,0.0%,i,i
CCOC(=O)Cn1c(=O)c2c(nc(Br)n2CC(=O)OCC)n(C)c1=O,3%,1.8e-08,-0.1%,i,i
CCOc1ccc(C2CC(c3ccc(CC)cc3)n3nc(N)nc3N2)cc1 (centres undefined),-2%,/,-1.5%,/,/

# Compounds shown so far with sulfur (6):
SMILES,TSHR agonist,A647 autofl,AID923,A488 fluor,Resorufin fluor
Cn1ccnc1SCC(=O)NC1CCCCC1,-1%,1.1e-08,-2.1%,i,i
CCCn1c2c(c(O)c(C(=O)Nc3nccs3)c1=O)CCCC2,34%,1.4e-09,1.3%,i,i
O=C(c1ccco1)N1CCN(C(c2ccc(F)cc2)c2nnnn2Cc2cccs2)CC1 (centres undefined),?,1.8e-08,0.0%,i,i
COc1ccccc1NC(=O)c1ccc(S(=O)(=O)N(C)C)cc1,5%,/,-0.7%,/,/
Cc1ccc(S(=O)(=O)Nc2ccc3c(c2)nc2n3CCN(Cc3ccccc3)C2)cc1,14%,1e-09,11%,i,i
Cc1cccc(NC(=O)CSc2nnc(-c3ccco3)o2)c1C,-1%,6.5e-09,-1.6%,i,i

# (next part)
SMILES,TSHR agonist,A647 autofl,AID923,A488 fluor,Resorufin fluor
C[C@@H](C(=O)NCc1ccc(C(F)(F)F)nc1)[C@H]1C[C@]1(C)[C@H](NC(=O)OCc1ccccc1)c1ccccc1,?,/,-1.5%,/,/
COc1ccc(C2C(C(=O)c3sc(C)nc3C)=C(O)C(=O)N2CCCn2ccnc2)cc1 (centres undefined),8%,3.2e-09,-2.8%,i,i
COc1cc(C(=O)NCc2ccc(OCCN(C)C)cc2)cc(OC)c1OC,-24%[25.6 µM],4.3e-08,-2.2%,i,i
c1cncc(C(c2nnnn2C2CCCC2)N2CCCC2)c1 (centres undefined),4%,1e-09,-0.9%,i,i
Cc1ccc(NC(=O)CCN2CCN(C/C=C/c3ccccc3)CC2)cc1C,/,1.8e-09,-0.3%,i,i
O=C1OCCC1Sc1nnc(-c2ccccc2)o1 (centres undefined),1%,4.6e-09,-0.9%,i,i
CCCCCn1c(CCNC(=O)c2cccs2)nc2ccccc21,-3%[11.4 µM],2.3e-09,0.1%,i,i
CCNc1nc(NCC)nc(Oc2ccc(OCC)nn2)n1,1%[11.4 µM],/,0.0%,/,/
CCCN(Cc1cc2cc(C)ccc2[nH]c1=O)C(=O)c1cccc(OC)c1,20%,1e-09,1.7%,i,i
Cc1sc2nc(SCC(=O)N(CCO)CCO)n(C3CCCCC3)c(=O)c2c1C,20%,/,1.2%,/,/
Cc1cc(C(=O)O)ccc1[N+](=O)[O-],?,/,-2.4%,/,/
CCOc1ccc(NC(=O)CN(C)S(=O)(=O)c2cccs2)cc1,-3%,4.4e-09,-1.0%,i,i
CC(=O)NCc1nc2ccccc2n1Cc1ccccc1C,2%,/,0.7%,/,/
CCOC(=O)N1CCOCCOCCN(C(=O)OCC)CCOCC1,/,1e-09,0.7%,i,i
Cc1ccc(Nc2nnc(SCC(=O)NCc3ccco3)s2)cc1,11%,1.1e-08,-0.9%,i,i
COc1ccc(NC(=O)c2cccnc2N2CCCCC2)cc1,16%,1e-09,0.2%,i,i
COc1ccccc1C(=O)Nc1cccc(NC(C)=O)c1,4%[11.4 µM],/,-0.5%,/,/
O=C(OCc1nc2ccccc2s1)c1cccs1,20%,2.6e-09,-1.0%,i,i
CCCOc1ccc(C(=O)Nc2cc(-c3nn4c(C)nnc4s3)ccc2C)cc1,12%,/,1.2%,/,/
CCc1nnc(NC(=O)c2ccc(N3C(=O)CCC3=O)cc2)s1,-1%,/,-1.4%,/,/
NS(=O)(=O)c1cc2c(cc1C(F)(F)F)NCNS2(=O)=O,-6%[25.6 µM],8.4e-09&4.1e-09,-1.8%,i,i
C[C@H]1CCCC2(CC[N+](C)(CCC[N+](C)(C)C)CC2)C1 (some centres undefined),1%[11.4 µM],1.7e-08,-0.3%[11.5 µM],i,i
O=C(Nc1cccc(C(F)(F)F)c1)C1CCN(S(=O)(=O)c2cnc[nH]2)CC1,2%,1.1e-09,-0.2%,i,i
CCn1c(=O)cc(OCC(=O)N(C)c2ccccc2F)c2ccccc21,?,/,2.2%,/,/
Cc1ccc2c(c1)c1ncnc(N3CCc4ccccc4C3)c1n2C,?,1e-09,16%,i,i
COC(=O)c1ccc(Cc2ccc(C(=O)OC)o2)o1,3%,3.4e-08,4.9%,i,i
CC1=Nn2c(nc(-c3ccccc3)c2-c2ccccc2)N(CC(N)=O)C(=O)C1,9%,4e-09,0.1%,i,i
CC(C(=O)Nc1ccc(N2CCOCC2)cc1)N1C(=O)c2ccccc2C1=O (centres undefined),?,1.2e-08,-1.2%,i,i
O=C(Cc1ccc(F)cc1)OCC(=O)c1cc2ccccc2o1,-4%,4.7e-08,0.0%,i,i
CCOc1ccc(N(CC(=O)NC(C)(C)C)C(=O)c2ccco2)cc1,6%,2.1e-08,-1.8%,i,i
Cc1cc(NC(=O)CN2CCN(c3ccccc3F)CC2)nc2c1c(=O)oc1ccccc12,12%,/,-1.4%,/,/
CN1CCN(c2oc(COc3ccc(-c4ccccc4)cc3)nc2C#N)CC1,?,1.6e-08,-0.4%,i,i
O=C(NCCc1ccc(Cl)cc1)C1CCCN(S(=O)(=O)c2cnc[nH]2)C1 (centres undefined),0%,/,2.2%,/,/
CCCCn1cnc2cc(NCc3cccc(OC)c3O)ccc21,-12%,3e-09,0.9%,i,i
N=C1C=CC=C2C1=NC1(CCCCC1)N2O,-16%,/,-0.3%,/,/
CCOC(=O)N1CCN(S(=O)(=O)c2ccc3c(c2)OCC(=O)N3)CC1,6%,1.8e-08,0.0%,i,i
NC1=NC(c2cccc(O)c2)n2c(nc3ccccc32)N1 (centres undefined),-4%,2e-09,-1.9%,i,i
CCOC(=O)c1sc(=S)n(-c2ccc3c(c2)OCO3)c1N,-27%,1e-09,-1.2%,i,i
CC(=O)c1ccc(NC2OC(C)C(O)C(O)C2O)cc1 (centres undefined),16%,1e-09,0.9%,i,i
CCOc1ccc(NS(=O)(=O)c2ccc3[nH]cc(C(=O)NC(C)CC)c(=O)c3c2)cc1 (centres undefined),-19%,1.6e-08,-0.4%,i,i
O=C(CNC(=O)c1ccco1)NCCCc1ccccc1,-1%,1e-09,0.2%,i,i
COCc1nnc(NC(=O)c2ccc(S(=O)(=O)N(C)c3ccccc3)cc2)o1,7%,/,-3.5%,/,/
Cc1csc(NC(=O)CSCC(=O)Nc2ccccc2)n1,?,3.9e-08,2.3%,i,i
CCOC(=O)Cn1nnnc1CN(Cc1ccc(OC)cc1)Cc1cc2cc(C)cc(C)c2[nH]c1=O,?,4.3e-09,-3.9%,i,i
CCn1c(C(O)c2ccc(C)cc2)nc2ccccc21 (centres undefined),13%,/,6.6%,/,/
O=C(CSc1nnc(Cn2cnc3ccccc32)o1)c1ccccc1,11%,4.3e-09,-3.3%,i,i
CCOC(=O)C1CCN(S(=O)(=O)c2ccc(OCC(=O)OC)cc2)CC1,-4%,1e-09,1.8%,i,i
CC1(C)Cc2ccccc2-c2nc(CN3CCOCC3)[nH]c(=O)c21,-7%,3.7e-08,-0.7%,i,i
CC(C)CC(c1nnnn1C(C)C)N1CCN(c2cccc(Cl)c2)CC1 (centres undefined),?,1e-09,-0.2%,i,i
CCn1cc(CN(C)C(=O)CSc2nc(-c3ccco3)cc(C(F)(F)F)n2)c(C)n1,-1%,2.5e-08,1.5%,i,i
CCOC(=O)Nc1ccc(S(=O)(=O)NCCCN2CCOCC2)cc1,0%,3.3e-08,2.0%,i,i
O=C(O)c1ccc(NC(=O)C2(c3ccccc3)CCOCC2)cc1,-4%,3.1e-08,2.1%,i,i
COCc1nnc(NC(=O)CCCOc2ccccc2)s1,9%,1e-09,-1.4%,i,i
Cc1oc(-c2cc(Cl)ccc2Cl)cc1-c1nn2c(C)nnc2s1,/,2.3e-08,0.0%,i,i
COc1cc(NC(=O)Cc2ccccc2OC)cc(OC)c1,-4%,9.2e-09,3.1%,i,i
Cc1cc(C)c(C#N)c(Oc2ccc(O)cc2)n1,6%,/,-0.7%,/,/
CC1=CC(C)(C)N(C(=O)CSc2nnc(-c3ccccc3)o2)c2ccc(C)cc21,?,/,1.3%,/,/
COc1cc(NC(=O)c2c(-c3ccccc3Cl)noc2C)c2ncccc2c1,?,/,-1.7%,/,/
O=C(CNS(=O)(=O)c1ccc(Br)s1)NCc1ccc2c(c1)OCO2,1%,3.1e-09,-0.7%,i,i
COc1ccc(-c2noc(CN(C(=O)C(C)(C)C)C(C)C)n2)cc1,/,1.9e-08,-0.3%,i,i

# More structures follow.
SMILES,TSHR agonist,A647 autofl,AID923,A488 fluor,Resorufin fluor
CC(C)[C@H](NC(=O)CCn1nnc2ccccc2c1=O)C(=O)O,-6%,1e-09,-0.7%,i,i
COCC(C)n1c(C)cc(C(=O)COC(=O)c2oc3ccccc3c2C)c1C (centres undefined),?,2.7e-08,-0.8%,i,i
COc1ccc(C)cc1NC(=O)NC1CCN(Cc2ccccc2)CC1,?,1e-09,0.1%,i,i
CCOC(=O)C(NC(C)=O)(Nc1ccc(S(=O)(=O)Nc2onc(C)c2C)cc1)C(F)(F)F (centres undefined),-5%,1e-09,-0.3%,i,i
COCCSc1ccccc1C(=O)Nc1nccs1,8%,5.7e-09,-1.0%,i,i

# 2 neighbouring compounds already listed, for reference:
SMILES,TSHR agonist,A647 autofl,AID923,A488 fluor,Resorufin fluor
COCC(C)n1c(C)cc(C(=O)COC(=O)c2oc3ccccc3c2C)c1C (centres undefined),?,2.7e-08,-0.8%,i,i
COc1ccc(C)cc1NC(=O)NC1CCN(Cc2ccccc2)CC1,?,1e-09,0.1%,i,i
